High-throughput results: PubChem, National Center for Advancing Translational Sciences (NCATS)
2A StopGo = lowers the luciferase signal of an FMDV 2A StopGo reporter. human cells with a luciferase reporter of 2A StopGo recoding; control for the full effect not named in the record. 1.2% of 410,000 active. AID 1159524. Potency, µM (series often up to 57.9 µM), for the others: top-dose signal change, negative = less light; active = well fitted falling curve with a large enough effect; inconclusive = small, poorly fitted or top-dose-only effect; inactive = no such curve, though single readings can be large or run the other way; tested in HEK293T cells; also: % is scaled to controls: 0 for no effect and ±100 for the full control effect; nearly all actives have a fitted effect of over 45% in size; luciferase light after 4 h
RE007 growth inh = less growth of the S. pombe RE007 Vpr strain; Potency, µM (series often up to 92.2 µM), without a hit: top-dose activity change, negative = less growth; S. pombe RE007 Vpr strain, BacTiter-Glo ATP luminescence, 24 h; control for the full effect not named in the record; 0.21% of 360,000 active; active = well fitted falling curve with a large enough effect; inconclusive = small, poorly fitted or top-dose-only effect; inactive = no such curve, though single readings can be large or run the other way;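 also: % is scaled to controls: 0 for no effect and ±100 for the full control effect; nearly all actives have a fitted effect of over 50% in size; the assay follows cell death caused by Vpr and the record does not say whether a fall means rescue or toxicity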
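Fission yeast RE007 carrying one integrated HIV-1 vpr copy, seeded at OD 0.01 in PMG+AL medium with 23 nL pinned compound. Grown 24 h at 30 degrees; viability read by BacTiter-Glo luminescence after 5 min.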
Cruzain noTriton = blocks cruzain activity in detergent-free assay; Potency, µM, for the others: max response, negative = inhibition, hits mostly inhibitors; purified cruzain, Z-FR-AMC fluorescence, no detergent; 2.3% of 200,000 active;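 also: plate controls were enzyme without inhibitor for no effect and buffer without enzyme for full effect; nearly all actives have a fitted effect of over 40% in size; top concentration of the series not given in the record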
Target sequence (P25779 123-467 limits assumed): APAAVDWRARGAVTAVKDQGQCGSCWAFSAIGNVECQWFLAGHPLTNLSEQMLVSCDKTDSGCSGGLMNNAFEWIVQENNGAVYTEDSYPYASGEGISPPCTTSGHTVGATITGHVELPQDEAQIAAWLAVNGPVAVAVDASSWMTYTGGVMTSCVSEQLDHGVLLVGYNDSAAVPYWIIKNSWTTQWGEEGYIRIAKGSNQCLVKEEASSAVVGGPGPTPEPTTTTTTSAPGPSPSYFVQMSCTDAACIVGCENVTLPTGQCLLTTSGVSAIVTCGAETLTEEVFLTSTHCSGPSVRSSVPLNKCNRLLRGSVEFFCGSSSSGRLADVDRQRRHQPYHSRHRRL
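Detergent-free condition (0.00005% Triton X-100) in acetate buffer pH 5.5 with DTT. 1.5 nM enzyme and compound were pre-mixed 15 min, then 2 uM Z-FR-AMC substrate added; reaction progress from fluorescence change between first and third reads (60 s).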
SARS PLpro yeast = inhibitors of SARS-CoV papain-like protease in yeast; S. cerevisiae expressing SARS-CoV PLpro, growth rescue; control for the full effect not named in the record; 0.19% of 330,000 active; Potency, µM (top dose mostly 32.9 µM), inactives show at the highest dose activity, positive = growth rescue; active means well fitted rising curve with a large enough effect; inconclusive means small, poorly fitted or top-dose-only effect; inactive means no such curve, though single readings can be large or run the other way; also: 0% is about no effect; nearly all actives have a fitted effect of over 55% in size; growth read by luminescence after 48 h
Cruzain inh Det = cruzain (T. cruzi) inhibition with detergent; P25779; purified cruzain, Z-FR-AMC fluorescence, 0.01% Triton; Potency, µM, for inactives: max response, negative = inhibition, usual class: inhibitors; 0.43% of 200,000 active; AID 1478;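 also: plate controls were neutral wells for no effect and buffer without enzyme for full effect; nearly all actives have a fitted effect of over 40% in size; top concentration of the series not given in the record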
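Detergent-containing run (0.01% Triton X-100) in acetate buffer pH 5.5 with 5 mM DTT: enzyme at 1.5 nM final, 15 min compound preincubation at room temperature, then 2 uM Z-FR-AMC substrate. Activity taken as 60 s fluorescence increase at 360/450 nm.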
Marburg entry inh = Marburg virus entry inhibition; Marburg virus pseudotyped entry inhibition, cell reporter; control for the full effect not named in the record; about a third of the inactives were read at about 46 µM; Potency, µM (doses to about 37.8 µM), without a hit: at the top dose activity change, negative = inhibition, most hits filed as inhibitors; 1.8% of 300,000 active; active = well fitted inhibition curve with a large enough effect; inconclusive = small, poorly fitted or top-dose-only effect, or effect the other way; inactive = flat fitted curve, though single readings scatter; tested in HEK293 cells; about a fifth of its hits are not listed in these tables; also: % is scaled to controls: 0 for no effect and ±100 for the full control effect; luciferase read-out
LASV entry inh = inhibitors of Lassa virus binding or cell entry; Potency, µM (top dose mostly 37.9 µM), without a hit: at the top dose activity change, negative = inhibition, usual class: inhibitors; Lassa virus pseudotype entry inhibition, cell reporter; control for the full effect not named in the record; 1.2% of 300,000 active; active means well fitted inhibition curve with a large enough effect; inconclusive means small, poorly fitted or top-dose-only effect, or effect the other way; inactive means flat fitted curve, though single readings scatter; tested in HEK293 cells; also: % is scaled to controls: 0 for no effect and ±100 for the full control effect; nearly all actives have a fitted effect of over 50% in size; luciferase read-out
NS1 inh = influenza NS1 inhibition. Potency, µM (top dose mostly 46.1 µM), inactives show at the highest dose activity, positive = more growth. AID 2326. 0.4% of 270,000 active. S. cerevisiae slowed by influenza A NS1, growth recovery by OD600; active means well fitted rising curve with a large enough effect; inconclusive means small, poorly fitted or top-dose-only effect; inactive means no such curve, though single readings can be large or run the other way; also: nearly all actives have a fitted effect of over 50% in size
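In this qHTS, NS1 from influenza A is expressed in budding yeast, where it slows growth. Cells are switched from glucose to 2% galactose medium (pH 6.0, -URA), treated with compound, and growth recovery is read at OD600.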
Starred values were filed as active, the others as inactive; ? = inconclusive; nt = no result given; & = joins results of further samples; [ ] = another dose, or the depositor's remark. Unless noted, calls follow the shape of the dose curve; as a rule, active = well fitted curve in the direction sought with a large enough effect; inconclusive = small, poorly fitted or top-dose-only effect, or another doubt; inactive = no such curve, though single readings can be large; an effect the other way counts as inactive or inconclusive. Potency is read from the fitted curve at half-maximal effect.

SMILES	2A StopGo	RE007 growth inh	Cruzain noTriton	SARS PLpro yeast	Cruzain inh Det	Marburg entry inh	LASV entry inh	NS1 inh
Cc1noc(C)c1C(=O)NCCC1=CCCCC1	41.0%[activator]	9.6%	-4.9%	4.9%	4.0%	-1.0%	6.8%	3.9%
COc1ccc(CCNC(=O)C(C)n2nc(C)c3c(C)n(-c4ccc(C)cc4)nc3c2=O)c(OC)c1 (stereo not given)	?	12.3%	nt	-0.8%	nt	?	?	11.1%
O=C(c1ccco1)N1CCc2[nH]nc(-c3ccccc3)c2C1	2.5%	-10.5%	nt	16.3%	nt	nt	nt	11.7%
Cc1ccc(NC(=O)CSc2nnnn2C)cc1S(=O)(=O)N(C)C	22.6%	3.1%	8.8%	?	4.1%	1.7%	26.0%	2.7%
CC1CN(c2c3c(nc4ncnn24)CCCC3)CC(C)O1 (stereo not given)	-21.8%	26.8%	-0.2%	-0.6%	2.7%	-1.7%	3.4%	6.0%
CSc1nc2ccccc2n1Cc1cccc([N+](=O)[O-])c1	-10.5%	3.2%	1.3%	-6.7%	-4.5%	-1.0%	5.4%	12.9%
COc1ccc(S(=O)(=O)Nc2ccc3c(c2)n(C)c(=O)n3C)cc1	-2.3%	10.5%	nt	24.0%	nt	-0.9%	-4.9%	0.6%
C(=N\Nc1nc2ccccc2[nH]1)/c1ccccc1	15.7%	-2.0%	nt	-0.6%	nt	-1.5%	-0.7%	-2.4%
CCOc1ccc(CNC(=O)c2cnc(SC)nc2CC)cc1	-20.9%	nt	-3.0%	nt	-1.9%	nt	1.6%[46.1 µM]	nt
Cn1c(NC(=O)c2ccco2)c(-c2ccccc2Cl)c(=O)c2ccccc21	-19.7%	7.2%	-2.5%	1.2%	-2.6%	2.0%	1.2%	-3.7%
COC(=O)COC(=O)CC(CC(N)=O)c1ccccc1 (stereo not given)	-1.1%	17.8%[3.69 µM]	-10.0%	0.3%	3.5%	4.5%	3.9%	0.7%
CCOC(=O)/C(C#N)=C1/C=CN(Cc2ccccc2)C=N1	41.2%[activator]	2.3%	-8.0%	-1.1%	-3.6%	22.4%	17.0%	3.5%
O=C(NNC(=O)c1ccc2ccccc2c1O)NC1CCCCC1	51.0%[activator]	14.4%	nt	9.8%	nt	nt	nt	?
CN(c1ccccc1C(=O)Nc1cccc(Cl)c1Cl)S(C)(=O)=O	-7.7%	13.3%	4.9%	-5.9%	-3.8%	0.1%	12.1%	-4.9%
COc1ccccc1C(=O)Nc1ccc(C)c(S(=O)(=O)N2CCCCC2)c1	-27.0%	-6.4%	nt	0.2%	nt	8.91µM*	?	nt
CCCN(C(=O)c1cc(S(=O)(=O)N2CCCCC2)ccc1Cl)C1CCS(=O)(=O)C1 (stereo not given)	-15.3%	-8.1%	nt	-1.3%	nt	nt	nt	8.0%
Cc1cccc(Nc2nc3c(S(=O)(=O)c4ccccc4)nnn3c3ccccc23)c1C	-3.5%	2.3%	?	2.4%	-2.8%	?	-16.4%	22.9%
O=C(Nc1cccc(Cl)c1N1CCCC1)c1cc2ccccc2o1	-12.1%	-3.5%	-21.9%	0.8%	-4.0%	-4.6%	?	-40.1%
CN(C)CCCOC(=O)N1c2ccccc2C=Cc2ccccc21	-9.4%	-3.2%	nt	3.2%	nt	nt	nt	0.0%
Cc1nc(SCC(=O)N2CCCCCC2)[nH]c(=O)c1C	18.0%	-1.0%	nt	-2.2%	nt	-13.0%	?	nt
N#Cc1cnn(-c2cccc(Cl)c2)c1-n1cccc1	-23.0%	7.0%	nt	-0.8%	nt	-2.0%[46.1 µM]	4.8%	-0.7%
Cc1cc(=O)[nH]c(SCC(=O)Nc2nc3c(s2)CCCC3)n1	22.4%	-15.5%	-8.3%	6.3%	-17.6%	18.7%	23.8%	2.4%
COC(=O)c1ccccc1NC=C1C(=O)OC2(CCCCC2)OC1=O	-11.4%	2.1%	-3.0%	-1.3%	-3.9%	-16.8%&-16.8%	11.5%	0.1%
N#C/C(=C\c1cn(CC(=O)O)c2ccccc12)C(=O)NCc1ccccc1	20.9%	11.4%	nt	-6.2%	nt	nt	nt	22.3%
CC1C(c2ccccc2)C(C#N)(C#N)C2(C#N)C(=O)NC1(N)C2C (stereo not given)	-2.5%	3.7%	8.1%	10.0%	10.7%	-13.5%	-15.6%	?
CCOC(=O)Nc1ccc2c(c1)N(C(=O)CCN(CC)CC)c1ccccc1CC2	1.3%	-5.5%	nt	4.8%	nt	nt	nt	5.7%
Cc1cc(N2C(=O)C(O)=C(C(=O)c3ccco3)C2c2ccccc2F)no1 (stereo not given)	-1.7%	7.7%	nt	-3.1%	nt	nt	nt	14.3%
CCc1ccc2nc(N3C(=O)C(O)=C(C(=O)c4ccco4)C3c3cccs3)sc2c1 (stereo not given)	25.9%	-21.2%	?	-42.3%	25.1µM*	?	-17.0%	13.3%
COc1ccccc1C(=O)Nc1ccc(N2CCN(C(C)=O)CC2)cc1	-3.0%	10.1%	nt	-0.1%	nt	?	16.1%[46.1 µM]	-0.4%
Cc1ccc(-n2c(C)cc(/C=N/NC(=O)CC3(C)OCCO3)c2C)cc1	28.6%	6.4%	-1.8%	3.5%	-7.5%	-22.1%	-19.7%	3.6%

Profiles as entered above. Values in the order: 2A StopGo	RE007 growth inh	Cruzain noTriton	SARS PLpro yeast	Cruzain inh Det	Marburg entry inh	LASV entry inh	NS1 inh
CCc1ccc2nc(N3C(=O)C(O)=C(C(=O)c4ccco4)C3c3cccs3)sc2c1 (stereo not given) in the list: 25.9%	-21.2%	?	-42.3%	25.1µM*	?	-17.0%	13.3%
COC(=O)c1ccccc1NC=C1C(=O)OC2(CCCCC2)OC1=O in the list: -11.4%	2.1%	-3.0%	-1.3%	-3.9%	-16.8%&-16.8%	11.5%	0.1%

(next part)
SMILES	2A StopGo	RE007 growth inh	Cruzain noTriton	SARS PLpro yeast	Cruzain inh Det	Marburg entry inh	LASV entry inh	NS1 inh
O=S(=O)(Nc1ccc2nc(C(F)(F)F)[nH]c2c1)c1ccccc1	nt	-3.5%	2.6%	3.9%	-0.3%	-27.9%	?	4.6%
CC(=O)NCCNC(=O)c1cccc(NS(=O)(=O)c2ccc3c(c2)OCCO3)c1	7.9%	-9.0%	nt	-0.7%	nt	2.5%[46.1 µM]	-2.6%	nt
CC1CCCCC1N1CCN(C(=O)c2cccc(F)c2)CC1 (stereo not given)	-19.0%	19.5%	-13.4%	4.6%	1.4%	13.3%[46.1 µM]	-0.4%	-2.6%
CCN(C(=O)Cn1nc(Cc2ccncc2)c2ccccc2c1=O)c1ccc(OC)cc1	-9.0%	nt	3.9%	nt	0.2%	?	11.6%[46.1 µM]	nt
CCOc1ccc(CNC(=O)CCCN2C(=O)C(c3ccccc3)Oc3cccnc32)cc1 (stereo not given)	-8.6%	-6.7%	nt	-9.0%	nt	nt	nt	?
Cc1ccc(NC(=O)N/C=C/c2ccc(Cl)cc2)cc1	1.5%	1.7%	?	-10.0%	4.1%	?	7.3%	21.4%
COc1ccc(-c2cc(C(=O)NCCN3CCOCC3)c3ccccc3n2)c(OC)c1	nt	-13.5%	-15.4%	nt	-13.3%	?	23.2%	8.5%
COc1ccc(CC(=O)NNS(=O)(=O)c2ccccc2[N+](=O)[O-])cc1	0.3%	0.8%	nt	1.3%	nt	1.2%	2.3%	4.3%
CCCC(=O)Nc1ccccc1OCc1cc(=O)n2cc(C)ccc2n1	-16.6%	nt	-15.6%	nt	5.2%	nt	-2.7%[46.1 µM]	nt
CCCC(=O)N(CCN(C(=O)CCC)c1ccccc1)c1ccccc1	?	14.9%	18.8%	-10.0%	1.3%	-20.8%	1.0%	-6.9%
O=C(CSc1n[nH]c(=O)n1C1CC1)Nc1ccccc1	-9.1%	-0.4%	nt	17.0%	nt	nt	nt	9.3%
CSc1ccc(C2CC(=O)Nc3c2c(=O)n(C)c(=O)n3C)cc1 (stereo not given)	-15.1%	-1.3%	nt	-3.7%	nt	nt	nt	3.6%
CC(C)c1ccc(NC2=CC(=O)CC(C)(C)C2)cc1	-10.8%	-4.2%	nt	-0.3%	nt	5.8%[46.1 µM]	?	5.3%
c1ccc2c(c1)CCc1snnc1-2	-16.7%	-3.7%	nt	2.6%	nt	nt	nt	-5.5%
CCOc1ncccc1C(=O)OCC(=O)NC1CCCCCC1	4.6%	14.8%	nt	-5.7%	nt	8.7%[46.1 µM]	7.5%	nt
CCc1cc(C(=O)O)c(NC(=O)c2cc(OC)c(OC)c(OC)c2)s1	10.3%	-9.9%	nt	-1.3%	nt	2.9%[46.1 µM]	24.8%[46.1 µM]	nt
COc1cc(C2c3c([nH]c(=O)[nH]c3=O)Nc3ccc4ccccc4c32)ccc1O (stereo not given)	16.4%	12.5%	nt	-1.2%	nt	?	-0.7%	nt
O=C1CCC(C(=O)OCc2c(Cl)cccc2Cl)N1 (stereo not given)	-9.9%	8.7%	-3.1%	2.3%	4.0%	12.7%	5.6%	8.9%
O=C(NNC1=C(C(=O)C(F)(F)F)CCC1)c1ccc(Cl)cc1	nt	-8.8%	-0.5%	-47.1%	-0.4%	?	5.6%	-126.0%
O=C(COC(=O)c1ccc(F)c(S(=O)(=O)N2CCOCC2)c1)NCc1ccco1	2.6%	1.5%	nt	25.2%	nt	-3.4%	-29.0%	14.9%
CCOC(=O)c1c(C)[nH]c(CCC(=O)Nc2cc(C)ccc2OC)c1C	-14.6%	nt	14.2%	nt	-0.6%	nt	-23.8%[46.1 µM]	nt
COc1ccc(OC)c(NC(=O)c2cnc(N3CCCC3)nc2C)c1	-15.8%	nt	1.0%	nt	-1.9%	nt	-11.9%[46.1 µM]	nt
COc1ccc(C(=O)Oc2cccc3cccnc23)cc1[N+](=O)[O-]	-3.7%	63.1µM*	nt	-6.2%	nt	-10.3%[46.1 µM]	11.8%	-43.3%
CCCc1cc(=O)[nH]c(SCC(=O)c2ccc3c(c2)NC(=O)CO3)n1	-27.6%	24.2%	nt	1.2%	nt	11.1%[46.1 µM]	19.5%	4.5%
CC1(C)CC2CC(C)(CN2C(=S)Nc2ccccc2)C1 (stereo not given)	65.9%[activator]	-9.2%	nt	9.5%	nt	4.9%[46.1 µM]	4.1%	nt
